Source: PubChem BioAssay
KCNQ2 inh – KCNQ2 potassium channel inhibitors, primary screen, cell-based, CHO-K1, FluxOR thallium flux, B-score (AID 2156). O88943. B-score at 10 µM. 310,000 tested, 1.1% active. 20 min; hits give low values; only compounds with negative scores are shown here; some inactives read as strong as hits;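 active = fluorescence ratio B-score at most minus 3 library SDs, with starting brightness B-score within 2 library SDs, cut at about -5.5 in these data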
Target sequence (O88943 whole entry, looked up): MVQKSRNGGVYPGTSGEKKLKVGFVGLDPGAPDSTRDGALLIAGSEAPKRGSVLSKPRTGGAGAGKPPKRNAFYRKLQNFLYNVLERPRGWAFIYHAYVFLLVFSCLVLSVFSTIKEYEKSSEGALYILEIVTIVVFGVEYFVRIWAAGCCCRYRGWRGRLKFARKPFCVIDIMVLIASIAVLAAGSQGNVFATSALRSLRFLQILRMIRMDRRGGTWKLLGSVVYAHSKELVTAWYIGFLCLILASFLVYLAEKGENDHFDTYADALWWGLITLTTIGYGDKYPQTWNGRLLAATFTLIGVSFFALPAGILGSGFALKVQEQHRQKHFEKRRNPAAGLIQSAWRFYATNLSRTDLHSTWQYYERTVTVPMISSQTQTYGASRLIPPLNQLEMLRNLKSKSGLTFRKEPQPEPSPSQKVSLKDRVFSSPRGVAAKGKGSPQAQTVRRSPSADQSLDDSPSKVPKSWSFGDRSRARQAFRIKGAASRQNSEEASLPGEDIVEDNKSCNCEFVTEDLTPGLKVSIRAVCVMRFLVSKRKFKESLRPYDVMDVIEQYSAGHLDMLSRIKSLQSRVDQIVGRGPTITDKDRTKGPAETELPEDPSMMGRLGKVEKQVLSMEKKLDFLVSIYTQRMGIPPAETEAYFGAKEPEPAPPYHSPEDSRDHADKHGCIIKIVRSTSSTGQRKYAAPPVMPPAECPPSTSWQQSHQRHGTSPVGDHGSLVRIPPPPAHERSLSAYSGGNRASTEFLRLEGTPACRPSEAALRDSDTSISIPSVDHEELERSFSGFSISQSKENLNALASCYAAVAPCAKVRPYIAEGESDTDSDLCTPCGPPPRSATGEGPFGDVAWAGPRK
KCNQ2 inh baseline – also measured in KCNQ2 inh; calls as there; B-score; measured here: initial fluorescence intensity artifact check;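 brightness before thallium and not channel activity; 0 = typical well and far values either way flag optical interference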
Numbers without * were called inactive; i = inactive.

Every second line gives: KCNQ2 inh baseline	KCNQ2 inh
COC(=O)c1ccc2c(c1)NC(=O)C(N1CCCC1)S2 (stereo not given)
 : 2.2	i
COc1ccccc1C(C(=O)NC1CCCCC1)N(C(=O)c1csnn1)C1CC1 (stereo not given)
 : -0.89	i
CCOc1[nH]n(-c2ccc(Cl)cc2)c(=O)c1C=Nc1ccc(OC)cc1
 : -0.34	i
COc1ccc(C)cc1NC(=O)c1ccccc1N(C)S(=O)(=O)c1ccccc1
 : 1.8	i
Cc1ccc2c(c1)C(c1ccncc1)=NNC(c1ccccc1)=N2
 : -0.54	i
Cc1ccnc2nc(C(=O)OCC(=O)Nc3ccccc3C(C)(C)C)nn12
 : 0.02	i
Cc1cc(C)n(C(=O)c2ccccc2[N+](=O)[O-])n1
 : 1.8	i
O=C(c1ccc(N2CCCC2=O)cc1)N1CCN(c2ccccc2)CC1
 : -0.03	i
C=CCN(CC=C)c1nc2ccccc2nc1C(C#N)C(=O)OC(C)C (stereo not given)
 : 0.32	i
CCN(CCCNC(=O)Cn1ncc2c([nH]c3ccc(C)cc32)c1=O)Cc1ccccc1
 : -2.1	i
CCCCN=C(NNc1ccc(Br)cc1)C(=O)OCC
 : -0.91	i
Fc1ccc(CSc2nnc(-c3cccs3)o2)cc1
 : 1.1	i
Cc1cccc(OCc2n[nH]c(=S)o2)c1
 : -0.59	i
Cc1ccc(NC(=O)COC(=O)CCc2ccc(S(=O)(=O)N3CCOCC3)cc2)c(C)c1
 : 0.6	i
CCCNC(=O)c1ccc(N2CCC3(CC2)CC(c2cccc(Br)c2)=NO3)c(NC(=O)c2c(Cl)cccc2Cl)c1
 : -1.1	i

The list goes on, overlapping the part above by 2 compounds.
Every second line gives: KCNQ2 inh baseline	KCNQ2 inh
Cc1ccc(NC(=O)COC(=O)CCc2ccc(S(=O)(=O)N3CCOCC3)cc2)c(C)c1
 : 0.6	i
CCCNC(=O)c1ccc(N2CCC3(CC2)CC(c2cccc(Br)c2)=NO3)c(NC(=O)c2c(Cl)cccc2Cl)c1
 : -1.1	i
CCOC(=O)N1CC=C2C(C#N)=C(N)C(C#N)(C#N)[C@H](c3cccs3)C2C1 (stereo not given in full)
 : 0.29	i
Cc1ccc(-c2noc(C3CCCN(C(=O)c4ccc(F)cc4F)C3)n2)cc1 (stereo not given)
 : -0.08	i
Cc1ccc(Nc2cc(C)c(O)c(C)c2)cc1
 : -1.2	i
COC(=O)c1nn(-c2ccccc2)c(=O)cc1Oc1ccc(Cl)cc1
 : 0.07	i
CCCCNC(=O)CC(NS(=O)(=O)c1ccc(C)cc1)c1ccco1 (stereo not given)
 : 0.19	i
Cn1cc(CCC(=O)NC2CC(C)(C)Cc3c2cnn3-c2ccc(F)cc2)cn1 (stereo not given)
 : 1.5	i
COc1ccc2c(C)cc(=O)oc2c1C
 : -1.2	i
CCOC(=O)C1=C(C)N(c2ccc(C)cc2)C(=O)/C1=C\c1cccs1
 : 1.3	i
CCn1c(NCc2ccc(N(C)C)cc2)nc2ccccc21
 : -0.62	i
Cc1ccccc1/C(N)=N/OC(=O)N1c2ccccc2Sc2ccccc21
 : -0.09*	-5.8*
N#CC1=C(N)N(c2ccc(F)cc2)C(=O)C1
 : 1.9	i
CCN(CC(=O)NC(=O)NC1CCCC1)Cc1ccccc1
 : -1.4	i
COc1ccccc1CCc1nnc(CCC(=O)NCC(C)Oc2cccnc2)o1 (stereo not given)
 : -0.62	i
Cc1c(C)c2ccc(O[C@@H]3O[C@H](CO)[C@@H](O)[C@H](O)[C@H]3O)c(C)c2oc1=O
 : 0.37	i
CCC(=O)N(Cc1cc(=O)[nH]c2ccccc12)c1ccccc1
 : -0.73	i

Reformatted with bars between the fields: part of the list above
structure | KCNQ2 inh baseline | KCNQ2 inh
COc1ccc2c(C)cc(=O)oc2c1C | -1.2 | i
CCOC(=O)N1CC=C2C(C#N)=C(N)C(C#N)(C#N)[C@H](c3cccs3)C2C1 (stereo not given in full) | 0.29 | i
COC(=O)c1nn(-c2ccccc2)c(=O)cc1Oc1ccc(Cl)cc1 | 0.07 | i

(listing goes on)
Every second line gives: KCNQ2 inh baseline	KCNQ2 inh
Cc1ccnc(NS(=O)(=O)c2ccc(NC(=O)C3COc4ccccc4O3)cc2)n1 (stereo not given)
 : 3.4	i
COc1ccc(/C=N/N2CCOCC2)cc1Cn1cc([N+](=O)[O-])cn1
 : 0.01	i
COc1cccc(C(=O)Nc2nnc(S(=O)(=O)N(C)Cc3ccc(F)cc3)s2)c1
 : 0.2	i
Cc1nnc(SCC(=O)N2CCc3ccccc3C2)s1
 : 2.9	i
C[N+]12CCC(CC1)C(OC(=O)C(O)(c1ccccc1)c1ccccc1)C2 (stereo not given)
 : 1.1	i
CCCCC1(C)OC(=O)C(=Cc2c[nH]c3ccccc23)C(=O)O1 (stereo not given)
 : 0.36	i
CC(=O)Nc1ccc(S(=O)(=O)N(C)CC(=O)OCC(=O)N2CCCCC2)cc1
 : -0.87	i
O=C(N/N=C/c1ccoc1)c1ccccc1
 : 1	i
Cc1cc(C)cc(N2C(N)=NC(N)=NC2c2cccc(Cl)c2)c1 (stereo not given)
 : 1.6	i
CC(C)(C)OC(=O)N1CCC(c2c(C(=O)N3CCN(C(=O)c4ccco4)CC3)cnn2-c2cccc(Cl)c2)CC1
 : 0.8	i
CCn1c(SC)nnc1-c1sc2cc(Cl)ccc2c1Cl
 : -2.6	i
COc1cccc(OCC(O)CN2CCN(c3ncccn3)CC2)c1 (stereo not given)
 : -0.44	i
COc1cc(C(=O)N(C)Cc2cccc(OC)c2OC)ccc1OCC(=O)Nc1cccc(C(F)(F)F)c1
 : 0.99	i
CC1CCCC(C)N1C(=O)Cn1c(=O)sc2ccccc21 (stereo not given)
 : -1.1	i
Cc1c(NC(=O)Cc2ccccc2)cccc1C(=O)NN1C(=O)c2ccccc2C1=O
 : -0.63	i
CN1C2=C(C(=O)CC(C)(C)C2)C(c2cccs2)C2=C1CC(C)(C)CC2=O
 : 1	i
Cc1nc(C)c(C(=O)N2CCCC(C(=O)c3ccc4ccccc4c3)C2)s1 (stereo not given)
 : -0.03	i
O=C(Cc1ccccc1)Nc1cccc(C(=O)O)c1O
 : -0.9	i
Cc1ccc(S(=O)(=O)n2ccc3c(OCCOCCNCc4ccc(F)cc4)cccc32)cc1
 : -0.28	i
O=Cc1ccc2c(c1)CCN2Cc1ccccc1
 : -1.2	i
CCN1CCN(c2cc(SC(C)C)nc(-c3ccc(OC)cc3)n2)CC1
 : 0.54	i
CCCCSc1nc(NCc2ccco2)c2c3c(sc2n1)COC(C)(C)C3
 : 0.19	i
O=C(O)CCC(CNS(=O)(=O)c1ccccc1)C(F)(F)F (stereo not given)
 : 0.27	i
CC1(C)NC(=O)N(CCCCOc2ccc(Cl)cc2)C1=O
 : 0.02	i
COc1ccc2nc(NC(=O)CS(=O)(=O)Cc3ccccc3)sc2c1
 : -0.01	i
Cc1cccc(-n2ncc3c(N4CCC5(CC4)OCCO5)ncnc32)c1
 : 0.64	i
CC(=O)Nc1ccc(SCC(=O)N(C)C2CCS(=O)(=O)C2)cc1 (stereo not given)
 : 0.62	i
CSCCC(NC(=O)c1cccc([N+](=O)[O-])c1)C(=O)O (stereo not given)
 : -0.64	i
NC(=O)CSc1nnc(COc2ccccc2)n1Cc1ccco1
 : 0.34	i
Cc1n[nH]c(=O)c2c(NC(=O)CSc3nc4ccccc4c(=O)n3CCCO)oc(C)c12
 : -1.1	i
Oc1ccccc1CNc1cnc2ccccc2c1
 : 0.75	i
CCc1ccc(NC(=O)C(NS(=O)(=O)c2cccc3nsnc23)c2ccccc2)cc1 (stereo not given)
 : -1.1	i
N#Cc1nccnc1N1CCN(C(=O)Nc2ccccc2)CC1
 : 0.18	i
COc1ccc(CCNC(=O)CCC(=O)Nc2ccc3nc(N4CCN(C)CC4)cc(C)c3c2)cc1OC
 : 0.08	i
CC12CCC(C(=O)N(NC(=O)c3ccc(O)cc3)C1=O)C2(C)C (stereo not given)
 : 1.9	i
CCc1nnc(NC(=O)CCc2c[nH]c3ccccc23)s1
 : -1.8	i
COc1ccccc1-c1nc(C#N)c(N2CCN(c3cccc(Cl)c3)CC2)o1
 : 0.78	i
O=C1CCC/C(=N\NC(=O)c2ccc(COc3ccccc3-c3ccccc3)cc2)C1
 : 1.6	i
Cc1cccc(NC(=O)NCC(c2ccc(F)cc2)N2CCN(C)CC2)c1 (stereo not given)
 : 0.02	i
CC(=O)N1c2ccc3ccccc3c2C(C)CC12CCCCC2 (stereo not given)
 : -0.72*	-6.6*
COc1ccc(/C=C/C(O)=C2/C(=O)N(C)C3(C)CC2c2ccccc2O3)cc1 (stereo not given)
 : -1.2	i
CC1CCc2nc(/C(C#N)=C/c3ccncc3)sc2C1 (stereo not given)
 : -0.81	i
O=C(NCc1nnc(SCC(=O)N2CCCCC2)o1)c1ccc(F)cc1
 : -0.59	i
COc1ccc(N(C(=O)CNC(=O)c2cccs2)C(C(=O)NCC2CCCO2)c2ccccc2)cc1OC (stereo not given)
 : 0.3	i
COc1ccc(CC(=O)NNS(=O)(=O)c2ccc(F)cc2)cc1
 : 0.37	i

Rewritten in markdown: entries from further up.
| mol | KCNQ2 inh baseline | KCNQ2 inh |
| --- | --- | --- |
| COc1ccc(N(C(=O)CNC(=O)c2cccs2)C(C(=O)NCC2CCCO2)c2ccccc2)cc1OC (stereo not given) | 0.3 | i |
| CCc1nnc(NC(=O)CCc2c[nH]c3ccccc23)s1 | -1.8 | i |
| O=C(NCc1nnc(SCC(=O)N2CCCCC2)o1)c1ccc(F)cc1 | -0.59 | i |

Further compounds:
Every second line gives: KCNQ2 inh baseline	KCNQ2 inh
COc1ccccc1NS(=O)(=O)c1ccc(O)c(C(N)=O)c1
 : 1.2	i
c1ccc(CCNc2ncnc3ccccc23)cc1
 : 0.69	i
CSCCC(NC(=O)c1cccc([N+](=O)[O-])c1)c1nc2ccccc2[nH]1 (stereo not given)
 : -0.06	i
CCC1Sc2ccc(S(=O)(=O)CCC(=O)Nc3ccc(NC(C)=O)cc3)cc2NC1=O (stereo not given)
 : 0.13	i
COCc1c(C(=O)Nc2ccc(Cl)cc2F)oc2ccccc12
 : 1.1	i
O=C(CCCOc1ccc(Cl)cc1Cl)N1CCN(c2ccccn2)CC1
 : 0.37	i
Cc1ccc(-n2nc3c(c2NC(=O)C(C)(C)C)CSC3)c(C)c1
 : 1.1	i
O=C(N/N=C/c1c[nH]c2ccccc12)c1cc(-c2cccc3ccccc23)n[nH]1
 : 2.2	i
O=C(/C=C1\SC(=O)N(CC(=O)Nc2ccc(F)cc2)C1=O)Nc1ccc(Cl)cc1
 : 0.31	i
COc1ccc(N2CCN(C(=O)CSc3nnc4c5cc(C)ccc5n(C)c4n3)CC2)cc1
 : -0.09	i
Cc1ccc(CCNC(=O)C2CCCN(S(=O)(=O)N3CC(C)CC(C)C3)C2)cc1 (stereo not given)
 : 0.01	i
COC(=O)c1cc(C#N)c(NCc2ccc(Cl)cc2Cl)nc1C
 : -0.05	i
O=C(Oc1cccc2ccccc12)C1CC1
 : 2	i
CN(C)c1nc(NCc2ccccc2)nc(N/N=C/c2ccccc2F)n1
 : -0.82	i
Cc1nc2cc(N3CCCCC3)c(NC(=O)c3cccnc3)cc2c(=O)n1Cc1ccccc1
 : -1.9	i
Cn1ccnc1SCC(=O)c1cc2ccccc2o1
 : 1.1	i
CCc1ccc(-c2cc3c(=O)n(CC(=O)NCCN4CCCCC4C)nc(C)n3n2)cc1 (stereo not given)
 : -0.38	i
O=[N+]([O-])c1ccc(N2CCN(c3ccccc3F)CC2)nc1
 : 0.01	i
O=C(/C(C=Nc1ccc(Br)cc1)=C(/O)c1ccco1)C(F)(F)F
 : -0.42	i
O=C(Nc1ccc(C(=O)NCc2ccc(F)cc2)cc1)C1=CSCCO1
 : -1.1	i
O=C(O)CCC1COc2ccccc2O1 (stereo not given)
 : 0.7	i
COC(=O)Nc1ccc(S(=O)(=O)N2CCCC(C(=O)N3CCCCCC3)C2)cc1 (stereo not given)
 : 0.53	i
CCC(=O)N(CCC(c1ccco1)C(C)C)Cc1ccccc1 (stereo not given)
 : -0.76	i
Cc1nn(C(C)C(=O)O)c(C)c1[N+](=O)[O-] (stereo not given)
 : 0.83	i
CCNS(=O)(=O)c1ccc(CCC(=O)N2CCN(C(=O)OCC)CC2)cc1
 : -2	i
COC(=O)[C@H](C)NC(=O)NCc1ccccc1
 : -0.51	i
COc1ccccc1NCC(O)COc1ccc(C(C)(C)C)cc1 (stereo not given)
 : 0.9	i
CC(C)c1ccc(C2(O)C(=O)Nc3cc(Br)ccc32)c(O)c1 (stereo not given)
 : -1.5	i
CCOc1cc(NC(=S)N2CCC(C(N)=O)CC2)c(C(=O)OC)cc1OCC
 : -0.16	i
COC(=O)CC1Oc2ccccc2N(Cc2ccccc2)C1=O (stereo not given)
 : -0.63	i
O=C(CSc1ncn[nH]1)Nc1nnc(-c2ccccc2)s1
 : 2.3	i
CCCCCC1CC(CC#CCN2CCOCC2)C(=O)O1 (stereo not given)
 : 0.23	i
O=C(NNC(=O)c1ccccc1O)c1cccc(Br)c1
 : 0.73	i
CCc1cc(=O)oc2c(C)c(OCC(=O)NCCN3CCOCC3)ccc12
 : 0.63	i
CC(=NCc1cccnc1)C1=C(O)c2ccccc2C1=O
 : -0.54	i
CCN(CC)S(=O)(=O)c1ccc(N2CCCCC2)c(NC(=O)/C(C#N)=C/c2ccc(OC)cc2)c1
 : 0.45	i
CCOc1ccc(Nc2nc(Cc3nnc(SCC(=O)NC4CCCC4)n3C)cs2)cc1
 : 8.1	i
Cc1ccc(-c2nc3ccccc3c(=O)n2Cc2ccccc2)cc1
 : -2	i
CCn1c(-c2cc(-c3ccccc3)sc2N)n[nH]c1=S
 : 0.23	i
CC(=O)Oc1ccc(C2C3=C(CC(C)(C)CC3=O)Nc3cc4c(cc32)OCCO4)cc1 (stereo not given)
 : -0.66	i
CC(C)=NNc1nc(-c2ccccc2)c(C)s1
 : -0.77	i
COc1ccc(/C=N/c2oc(-c3ccccc3)cc2C#N)cc1
 : 0.06	i
COc1ccc(OC)c(CNC(=O)C2CCC(=O)N2C(C)C)c1 (stereo not given)
 : -0.07	i

This is a subset; count on the stated rates, not on these rows.
